RE007 growth inh: less growth of the S. pombe RE007 Vpr strain; 360,000 tested, 0.21% active; Potency, µM (titrated, usually from 92.2 µM), inactives show at the highest dose activity change, negative = less growth; S. pombe RE007 Vpr strain, BacTiter-Glo ATP luminescence, 24 h; control for the full effect not named in the record; active = well fitted falling curve with a large enough effect; inconclusive = small, poorly fitted or top-dose-only effect; inactive = no such curve, though single readings can be large or run the other way;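 note: % is set by controls: 0 for no effect and ±100 for the full control effect; nearly all actives have a fitted effect of over 50% in size; the assay follows cell death caused by Vpr and the record does not say whether a fall means rescue or toxicity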
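Fission yeast strain RE007, carrying one chromosomally integrated HIV-1 vpr copy, was seeded at OD 0.01 in PMG+AL medium with 23 nL pinned compound. After 24 h at 30 °C and 99% humidity, viability was read by BacTiter-Glo luminescence.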
LASV entry inh: blocks Lassa virus binding to or entry into cells; Lassa virus pseudotype entry inhibition, cell reporter; control for the full effect not named in the record; Potency, µM (doses to about 37.9 µM), for inactives: top-dose activity change, negative = inhibition, most hits filed as inhibitors; 300,000 tested, 1.2% active; AID 540256; active means well fitted inhibition curve with a large enough effect; inconclusive means small, poorly fitted or top-dose-only effect, or effect the other way; inactive means flat fitted curve, though single readings scatter; tested in HEK293 cells; note: % is set by controls: 0 for no effect and ±100 for the full control effect; nearly all actives have a fitted effect of over 50% in size; luciferase read-out
SARS PLpro yeast: blocks SARS-CoV papain-like protease in a yeast assay. S. cerevisiae expressing SARS-CoV PLpro, growth rescue; control for the full effect not named in the record. Potency, µM (titrated, usually from 32.9 µM), for inactives: at the highest dose activity, positive = growth rescue. 330,000 tested, 0.19% active; active means well fitted rising curve with a large enough effect; inconclusive means small, poorly fitted or top-dose-only effect; inactive means no such curve, though single readings can be large or run the other way; note: 0% is about no effect; nearly all actives have a fitted effect of over 55% in size; growth read by luminescence after 48 h
MARV entry inh: Marburg virus entry inhibition; Marburg virus pseudotyped entry inhibition, cell reporter; control for the full effect not named in the record; about a third of the inactives were read at about 46 µM; Potency, µM (series often up to 37.8 µM), without a hit: at the highest dose activity change, negative = inhibition, most hits filed as inhibitors; 300,000 tested, 1.8% active; AID 540276; active = well fitted inhibition curve with a large enough effect; inconclusive = small, poorly fitted or top-dose-only effect, or effect the other way; inactive = flat fitted curve, though single readings scatter; tested in HEK293 cells; about a fifth of its hits are not listed in these tables; note: % is set by controls: 0 for no effect and ±100 for the full control effect; luciferase read-out
Cruzain noTriton: inhibitors of Trypanosoma cruzi cruzain without detergent. P25779. purified cruzain, Z-FR-AMC fluorescence, no detergent. Potency, µM, for inactives: max response, negative = inhibition, most hits filed as inhibitors. 200,000 tested, 2.3% active. AID 1476;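 note: plate controls were enzyme without inhibitor for no effect and buffer without enzyme for full effect; nearly all actives have a fitted effect of over 40% in size; top concentration of the series not given in the record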
Target sequence (P25779 123-467 limits assumed): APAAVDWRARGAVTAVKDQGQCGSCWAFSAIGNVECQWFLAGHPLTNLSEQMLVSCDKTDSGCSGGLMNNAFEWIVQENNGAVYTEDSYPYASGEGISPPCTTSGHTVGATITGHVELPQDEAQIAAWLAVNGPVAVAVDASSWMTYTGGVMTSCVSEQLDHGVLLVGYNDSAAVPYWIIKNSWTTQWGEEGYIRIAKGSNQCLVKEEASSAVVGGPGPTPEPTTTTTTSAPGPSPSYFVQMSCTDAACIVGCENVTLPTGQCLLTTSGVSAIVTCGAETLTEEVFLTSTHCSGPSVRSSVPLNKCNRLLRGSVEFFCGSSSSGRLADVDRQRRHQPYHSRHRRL
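Purified cruzain at 1.5 nM, pre-incubated 15 min with compound at room temperature in 100 mM sodium acetate pH 5.5, 5 mM DTT, 0.00005% Triton X-100. Reaction started with 2 uM Z-FR-AMC; AMC fluorescence increase over 60 s gives rate.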
Cruzain Triton: cruzain (T. cruzi) inhibition with detergent; P25779; 200,000 tested, 0.43% active; AID 1478; purified cruzain, Z-FR-AMC fluorescence, 0.01% Triton; Potency, µM, for inactives: max response, negative = inhibition, hits mostly inhibitors;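 note: plate controls were neutral wells for no effect and buffer without enzyme for full effect; nearly all actives have a fitted effect of over 40% in size; top concentration of the series not given in the record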
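Cruzain (1.5 nM) preincubated 15 min at RT with compound in 100 mM sodium acetate pH 5.5, 5 mM DTT, 0.01% Triton X-100. Reaction started with 2 uM Z-FR-AMC; AMC fluorescence (ex 360/em 450 nm) change over 60 s gave rate.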
2A StopGo: lowers the luciferase signal of an FMDV 2A StopGo reporter | 410,000 tested, 1.2% active | human cells with a luciferase reporter of 2A StopGo recoding; control for the full effect not named in the record | Potency, µM (doses to about 57.9 µM), without a hit: at the highest dose signal change, negative = less light; active = well fitted falling curve with a large enough effect; inconclusive = small, poorly fitted or top-dose-only effect; inactive = no such curve, though single readings can be large or run the other way; tested in HEK293T cells; note: % is set by controls: 0 for no effect and ±100 for the full control effect; nearly all actives have a fitted effect of over 45% in size; luciferase light after 4 h
NS1 function inh: blocks influenza NS1 protein function; S. cerevisiae slowed by influenza A NS1, growth recovery by OD600; Potency, µM (titrated, usually from 46.1 µM), without a hit: top-dose activity, positive = more growth; 270,000 tested, 0.4% active; active means well fitted rising curve with a large enough effect; inconclusive means small, poorly fitted or top-dose-only effect; inactive means no such curve, though single readings can be large or run the other way; note: nearly all actives have a fitted effect of over 50% in size
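In this qHTS, NS1 from influenza A is expressed in budding yeast, where it slows growth. Cells are switched from glucose to 2% galactose medium (pH 6.0, -URA), treated with compound, and growth recovery is read at OD600.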
Active calls of the source: *; ? = inconclusive; / = no result given; & = joins results of further samples; [ ] = another dose, or the depositor's remark. Unless noted, calls come from the whole dose curve; as a rule, active = well fitted curve in the direction sought with a large enough effect; inconclusive = small, poorly fitted or top-dose-only effect, or another doubt; inactive = no such curve, though single readings can be large; an effect the other way counts as inactive or inconclusive. Potency is the fitted concentration of half-maximal effect. This is a random part of the collection. Share with any hit: about 4.7%.

No.	SMILES	RE007 growth inh	LASV entry inh	SARS PLpro yeast	MARV entry inh
1	CC(=O)c1c(OCC(=O)O)ccc2c(C)cc(=O)oc12	-12%	2%	/	22%&22%
2	COc1ccc(/C=N/NC(=O)CSCc2ccc([N+](=O)[O-])cc2)cc1OC	13%	?	-2%	11%
3	CCCC(=O)N(CCN1CCOCC1)c1nc2c(OCC)cccc2s1	-9%	/	?	/
4	CSc1ccccc1NC(=O)CN(C)CC(=O)c1c(C)[nH]c2ccccc12	-2%	-2%	-12%	10%
5	COc1ccc(Nc2nc(N)nc(CN3CCc4ccccc4C3)n2)cc1	-15%	/	-1%	/
6	COc1ccc(N2CCN(c3ncnc4onc(C)c34)CC2)cc1	/	8%[46.1 µM]	/	/
7	Cc1ccccc1C(=O)O/N=C1\CCS(=O)(=O)c2sccc21	-11%	3%	2%	2%
8	CC(C)(C)c1ccc(C(=O)Nc2c(C(=O)c3ccc(F)cc3)oc3ccccc23)cc1	/	8%[46.1 µM]	/	-5%[46.1 µM]
9	COc1cccc(Cn2c(=O)c3[nH]cnc3n(-c3ccccc3C)c2=O)c1	16%	/	?	/
10	Cc1nnc(SCC(=O)Nc2ncc(Cc3ccc(F)cc3)s2)n1N	-15%	7%	3%	6%[46.1 µM]
11	CC(C)c1ccc2c(c1)C(N1CCNCC1)Cc1ccc(F)cc1S2 (configuration not stated)	0%	?	/	?
12	CCOC(=O)c1c(C)oc2cc(Br)c(OC)cc12	-2%	0%	1%	0%
13	CN(C)S(=O)(=O)c1ccc2nnn(OCC(=O)NC34CC5CC(CC(C5)C3)C4)c2c1	5%	-12%	-2%	-13%
14	Cc1ccc(/C=C2/SC(=O)NC2=S)o1	-18%	1%	0%	0%
15	CC(=O)c1cccc(NS(=O)(=O)c2c(C)nc3sc(C)cn3c2=O)c1	/	-19%[46.1 µM]	/	/

No.	Cruzain noTriton	Cruzain Triton	2A StopGo	NS1 function inh
1	-9%	-1.5%	6%	10%
2	-7%	-3.3%	-20%	-7%
3	/	/	-18%	-23%
4	/	/	-13%	/
5	-2%	3.1%	-25%	-5%
6	-16%	-1.2%	?	/
7	-3%	-3.2%	15%	6%
8	6%	-0.6%	-23%	/
9	/	/	-3%	-1%
10	-1%	8.3%	14%	-2%
11	/	/	-5%	/
12	-9%	-3.3%	17%	-2%
13	-1%	-0.1%	-16%	-8%
14	/	/	-7%	/
15	0%	-4.6%	-21%	/

Remaining list, next part.
No.	SMILES	RE007 growth inh	LASV entry inh	SARS PLpro yeast	MARV entry inh
16	C=CCN(CC=C)S(=O)(=O)c1ccc(NC(=S)NC(=O)Cc2ccc(OC)cc2)cc1	-13%	?	12%	-23%
17	CC(=O)N1CCc2cc(S(=O)(=O)CCC(=O)N(C)c3cc(C)ccc3C)ccc21	-7%	/	-4%	/
18	CCn1cc(C(=O)O)c(=O)c2cnc(N3CCN(C(=S)NC(=O)c4ccccc4Cl)CC3)nc21	-1%	/	2%	/
19	COc1cccc2cc(C(=O)Nc3ccccc3C)/c(=N/NS(=O)(=O)c3ccccc3)oc12	7%	/	1%	/
20	O=C1c2cccnc2Nc2ccccc2N1CCCF	-7%	5%	5%	29%
21	O=C(O)/C=C/c1ccc2noc(-c3ccccc3)c2c1	6%	/	2%	/
22	COc1ccc(C2CC(=O)Nc3cc(OC)c(OC)cc32)cc1Br (configuration not stated)	-10%	/	-10%	/
23	CCOC(=O)N1CCC(NC(=O)c2cnn3ccccc23)CC1	0%	/	3%	/
24	CCCOc1cccc(C(=O)N(Cc2cccs2)C2CCS(=O)(=O)C2)c1 (configuration not stated)	-15%	-2%	1%	-26%
25	O=C(CN1C(=O)COc2ccc(Cl)cc21)N1CCOCC1	4%	/	1%	/
26	Cc1cc(C)cc(NS(=O)(=O)c2csc(C(N)=O)c2)c1	2%	-10%[46.1 µM]	-1%	?
27	CCOC(=O)C1CCCN(C(=O)c2cn(C)c(=O)c3cc(OC)c(OC)cc23)C1 (configuration not stated)	-1%	-6%	30%	?
28	CC(C)CCn1cnc2c(sc3nc4c(cc32)CSC(C)(C)C4)c1=O	17%	3%	20%	-13%
29	Cc1c(Cc2ccccc2)c(=O)oc2c(C)c(OCC(=O)NCc3ccccn3)ccc12	10%	-8%[46.1 µM]	3%	3%[46.1 µM]
30	Cc1cccc(Cc2c(C)nc3nc(SCC(=O)NCc4ccco4)nn3c2C)c1	10%	?	4%	?

No.	Cruzain noTriton	Cruzain Triton	2A StopGo	NS1 function inh
16	-10%	-8.4%	0%	-1%
17	/	/	-5%	-5%
18	/	/	-11%	3%
19	/	/	17%	-10%
20	-15%	4.8%	-24%	-13%
21	/	/	15%	7%
22	/	/	-11%	10%
23	8%	3.2%	-13%	2%
24	0%	-2.1%	-16%	-3%
25	/	/	3%	3%
26	/	/	50%[activator]	-2%
27	3%	-0.6%	-9%	-4%
28	-4%	-0.4%	-3%	9%
29	/	/	-22%	8%
30	1%	0.5%	-16%	?

Some of the entries above, reformatted:
[24] CCCOc1cccc(C(=O)N(Cc2cccs2)C2CCS(=O)(=O)C2)c1 (configuration not stated)
  RE007 growth inh = -15% | LASV entry inh = -2% | SARS PLpro yeast = 1% | MARV entry inh = -26% | Cruzain noTriton = 0% | Cruzain Triton = -2.1% | 2A StopGo = -16% | NS1 function inh = -3%

[25] O=C(CN1C(=O)COc2ccc(Cl)cc21)N1CCOCC1
  RE007 growth inh = 4% | LASV entry inh = / | SARS PLpro yeast = 1% | MARV entry inh = / | Cruzain noTriton = / | Cruzain Triton = / | 2A StopGo = 3% | NS1 function inh = 3%

Going on with the list:
No.	SMILES	RE007 growth inh	LASV entry inh	SARS PLpro yeast	MARV entry inh
31	CC1(C)CC2(C)Nc3ccccc3N2C(=S)N1 (configuration not stated)	/	1%	19%	11%
32	O=C(OCC(=O)c1cccs1)c1ccc(NC(=O)c2ccco2)cc1	5%	3%	-13%	24%
33	C=CCn1c(CNc2ccccc2)nnc1SCC(=O)N/N=C/c1ccc(O)cc1O	15%	-11%	10%	0%
34	O=C(NCc1ccc2c(c1)OCO2)C1CC(=O)N(CCc2ccccc2)C1 (configuration not stated)	7%	/	-1%	/
35	CCOC(=O)c1c(NC(=O)C2Cc3ccccc3C(=O)O2)sc2c1CCCC2 (configuration not stated)	8%	0%	/	6%[46.1 µM]
36	O=C(Cn1c(=O)n(Cc2cccs2)c(=O)c2cccnc21)Nc1ccc(F)cc1	/	/	/	0%[46.1 µM]
37	CN(C)c1ccc(N2C(=NC(=O)CCc3ccccc3)SC3CS(=O)(=O)CC32)cc1 (configuration not stated)	-10%	/	0%	/
38	COc1ccc(OC)c(NC(=O)CS(=O)(=O)c2ccccc2)c1	7%	2%	0%	3%
39	CCN(CC)c1ccc(N2C(=NC(=O)C3CCCO3)SC3CS(=O)(=O)CC32)cc1 (configuration not stated)	2%	/	-1%	/
40	O=C(CCN1C(=O)c2ccccc2C1=O)Nc1cccnc1	1%	6%	-23%	?
41	COc1ccccc1C(=O)N/C(=C\c1ccccc1)C(=O)NC(C)C(=O)O (configuration not stated)	4%	5%[46.1 µM]	0%	-2%[46.1 µM]
42	CN(C)C(CNC(=O)NC1CCCCC1)c1cccnc1 (configuration not stated)	4%	-15%	4%	-9%
43	O=C(CCC1CCCN(C(=O)CCC(F)(F)F)C1)NCc1ccc(F)c(F)c1 (configuration not stated)	-17%	-8%	0%	1%[46.1 µM]
44	Cc1cccc(-n2cc(-c3ccccc3)c3c(NC(C)C)ncnc32)c1	/	-21%[46.1 µM]	/	/
45	CCc1nn(CC(=O)NCCCc2ccccc2)c(=O)c2cc3cc(F)ccc3n12	6%	/	0%	-1%&-1%[46.1 µM]

No.	Cruzain noTriton	Cruzain Triton	2A StopGo	NS1 function inh
31	-2%	-0.9%	-10%	-1%
32	-25%	-1.1%	26%	-56%
33	-7%	1.4%	0%	-5%
34	11%	1.2%	-7%	-3%
35	/	/	4%	/
36	-9%	-5.4%	-10%	/
37	/	/	10%	5%
38	-2%	6.8%	-19%	2%
39	/	/	-22%	-7%
40	16%	-0.1%	11%	5%
41	/	/	-7%	?
42	-7%	6.0%	-13%	7%
43	/	/	32%[activator]	0%
44	-1%	-3.0%	?	/
45	-5%	-1.3%	-7%&-13%	-5%

More records
No.	SMILES	RE007 growth inh	LASV entry inh	SARS PLpro yeast	MARV entry inh
46	COc1ccc2c(c1OC)C(=O)OC2Nc1ccccc1S(=O)(=O)C(F)F (configuration not stated)	3%	-10%	-6%	-5%
47	Cc1cccc(NC(=O)C2(c3ccccc3)CCOCC2)c1	11%	-6%	0%	7%[46.1 µM]
48	CCOC(=O)C1(Cc2cccc(Cl)c2)CCCN(CCO)C1 (configuration not stated)	-14%	0%[46.1 µM]	-1%	?
49	Cc1cccc(Oc2nc3c(c(=O)n(C)c(=O)n3C)n2C)c1C	/	28%[46.1 µM]	/	-1%[46.1 µM]
50	Cc1nc2nc(-c3cccnc3)[nH]n2c(=O)c1Cc1ccccc1	7%	4%	6%	4%

No.	Cruzain noTriton	Cruzain Triton	2A StopGo	NS1 function inh
46	-2%	-2.8%	8%	-2%
47	/	/	-9%	-6%
48	/	/	5%	4%
49	17%	0.3%	?	/
50	-7%	0.2%	-10%	15%

Screens (PubChem)
